# NPR1 antag: antagonists of human natriuretic peptide receptor Npr1. 76,000 compounds, 1.6% hits. P16066. HEK293 hNpr1 GloSensor cGMP, ANP-stimulated luminescence. AID 1347048. Potency, µM (titrated, usually from 46.3 µM), for the others: top-dose activity change, negative = inhibition, actives largely listed as inhibitors; active = well fitted inhibition curve with a large enough effect; inconclusive = small, poorly fitted or top-dose-only effect; inactive = no such curve, though single readings can be large or run the other way;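 also: nearly all actives have a fitted effect of over 60% in size; nearly all hits also lower the signal before the agonist is added; a reference antagonist and vehicle were the controls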
# Target sequence (P16066 whole entry, looked up): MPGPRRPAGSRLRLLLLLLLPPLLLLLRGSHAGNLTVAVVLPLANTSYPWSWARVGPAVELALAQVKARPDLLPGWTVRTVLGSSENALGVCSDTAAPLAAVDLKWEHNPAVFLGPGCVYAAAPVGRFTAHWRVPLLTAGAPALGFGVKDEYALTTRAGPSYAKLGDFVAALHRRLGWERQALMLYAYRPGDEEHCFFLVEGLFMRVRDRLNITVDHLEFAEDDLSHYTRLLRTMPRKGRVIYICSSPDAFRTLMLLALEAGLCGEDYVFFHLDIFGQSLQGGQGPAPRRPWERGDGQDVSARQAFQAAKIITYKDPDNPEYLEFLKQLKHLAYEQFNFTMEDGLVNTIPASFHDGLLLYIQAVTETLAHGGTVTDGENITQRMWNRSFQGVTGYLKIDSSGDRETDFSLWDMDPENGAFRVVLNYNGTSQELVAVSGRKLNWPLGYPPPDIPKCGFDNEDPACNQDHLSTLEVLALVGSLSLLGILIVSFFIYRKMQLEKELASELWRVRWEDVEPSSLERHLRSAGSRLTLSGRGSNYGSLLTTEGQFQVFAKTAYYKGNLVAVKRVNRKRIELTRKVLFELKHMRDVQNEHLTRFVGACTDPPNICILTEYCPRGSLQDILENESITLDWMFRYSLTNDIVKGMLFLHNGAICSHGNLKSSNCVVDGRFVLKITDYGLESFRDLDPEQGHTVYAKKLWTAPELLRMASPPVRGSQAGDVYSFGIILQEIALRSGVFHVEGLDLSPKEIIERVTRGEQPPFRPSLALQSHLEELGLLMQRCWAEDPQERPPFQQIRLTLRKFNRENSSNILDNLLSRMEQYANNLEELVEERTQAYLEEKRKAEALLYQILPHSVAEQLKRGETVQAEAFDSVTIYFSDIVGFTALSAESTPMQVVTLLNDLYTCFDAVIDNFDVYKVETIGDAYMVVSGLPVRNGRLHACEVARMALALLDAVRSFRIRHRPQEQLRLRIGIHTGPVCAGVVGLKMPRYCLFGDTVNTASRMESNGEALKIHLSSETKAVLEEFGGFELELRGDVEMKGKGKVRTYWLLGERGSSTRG
#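 Compound pre-incubated 30 min at room temperature on GloSensor-loaded HEK293 cells stably carrying hNpr1 and the pGS-40F cGMP biosensor. Stimulation uses hNppA at 0.1 nM final; luminescence is taken at baseline and 20 min post-agonist.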
# The depositor's hits bear a star; ? = inconclusive; [ ] = remark or other dose. % is scaled to controls: 0 for no effect and ±100 for the full control effect; potency is read from the fitted curve at half-maximal effect. Some of the compounds tested (hit frequency here may not be typical).
mol | NPR1 antag
COCCN1C(=O)CO[C@H]2CN(c3ncccn3)C[C@H]21 | 4%[70.6 µM]
CN1CC(=O)N(c2ccccc2F)Cc2c1ncnc2N1CCCCC1 | 0%
O=C1CC(c2ccccc2)N(C(=O)CNC(=O)C2CCOCC2)CCCCCCN1 (stereo unspecified) | 4%
COc1ccc(CC(=O)N2CCCCC23Cc2ccccc2NC3=O)cc1 (stereo unspecified) | -4%
CC1=C(C(=O)OC(C)C)C(c2ccccc2Cl)CC(=O)N1Cc1cc(F)cc(F)c1 (stereo unspecified) | 2%
COc1cccc(CCNC(=O)c2c(C)noc2-c2cc(OC)c(OC)c(OC)c2)c1 | -22%
CC(C)CN1CCN(C(=O)c2ccc3c(c2)N(S(C)(=O)=O)CC3)CC1 | 2%
O=C(CC1CCOC2(CCN(C(=O)c3cccc(F)c3)CC2)C1)NCc1ccncc1 (stereo unspecified) | 0%
O=C1Cc2c(-c3ccc(F)cc3F)n[nH]c2CN1CC1CC1 | -20%[70.6 µM]
Cc1noc(C)c1[S+](=O)([O-])N1CCC2(CC1)C(=O)NN=C2c1cccnc1 | -14%
Cn1cc(CC(=O)N2CCCc3ncc(C(=O)N4CCN(Cc5ccccc5)CC4)cc32)c2ccccc21 | -14%
O=C1N(CC2CCOCC2)CCOC12CCN([S+](=O)([O-])c1cccs1)CC2 | -2%[70.6 µM]
COc1ncccc1-c1cc(-c2ccc(=O)[nH]c2)c2cncn2c1 | -10%[70.6 µM]
CC1Oc2ccc(NC(=O)Cc3cccs3)cc2CN(Cc2ccc(Cl)cc2)C1=O (stereo unspecified) | 14µM*
O=C(CCc1ccnc(N2CCCC2)c1)NCc1cccc(Cl)c1 | -4%
Cc1cc(C(=O)N2c3ccccc3CC2c2nc(C3CC3)no2)nn1C (stereo unspecified) | -2%
CC[C@H]1CN(C(=O)c2ccnc(Cl)c2)CC[C@H]1CC(=O)N(C)CC#N | -2%[70.6 µM]
COCc1ccc2c(c1)c(OC(C)(C)C(N)=O)nn2CCC(C)C | 8%[70.6 µM]
CN1CC(=O)N(CC(=O)N2CCC3(CCCN(C)C3=O)C2)C1=O (stereo unspecified) | -1%
O=C(c1ccc(Cl)nc1)N1CCCC(c2nn(-c3ccccc3)c(=O)[nH]2)C1 (stereo unspecified) | 12%
O=C1CCN(C(=O)Cc2cccnc2)CCCC(c2nc(-c3cccnc3)no2)CCN1 (stereo unspecified) | 2%
COc1cc(C)sc1C(=O)N1CCOCC1CC(=O)NCc1cccnc1 (stereo unspecified) | 1%
COCC(=O)N[C@@H]1CN(Cc2ccco2)CC[C@@H]1c1n[nH]c(C)n1 | 3%
Cc1ncoc1C(=O)N1CCC(C2CCN(S(C)(=O)=O)CC2)C1 (stereo unspecified) | 0%
Cc1nccn1CCNC(=O)c1ccc(N2CC3CC(C2)[C@H]2CCCC(=O)N2C3)nc1 (stereo partly specified) | 3%
Cc1ccc(N2C[C@]34C=C[C@H](O3)C(C(=O)N(C)Cc3ccno3)C4C2=O)cc1C (stereo partly specified) | 3%
COc1cc(OC)cc(-c2nc(C3CC(=O)N(c4ccc(F)c(Cl)c4)C3)no2)c1 (stereo unspecified) | -15%
CC(C)Oc1ccc(C(=O)N2Cc3cnn(Cc4ccc(F)cc4)c3C2)cc1 | ?
CCc1csc(CNC(=O)c2ccc(N(C)Cc3cccs3)nc2)n1 | -18%
O=C(c1cc2ccccc2[nH]1)N1CCC2(C1)NC(=O)N(Cc1ccc(Cl)cc1)C2=O (stereo unspecified) | -8%
COc1ccc(CCNC(=O)c2cc3n(n2)CC(c2ccc(Cl)cc2)OC3)cc1OC (stereo unspecified) | ?
Cc1nn(-c2ccc(C(F)(F)F)cc2)c(C)c1[C@@H]1C=C[C@@H](NC(=O)c2cccnc2)C1 | -26%[70.6 µM]
COc1ccc(NC(=O)N2CCCN(C)c3ccccc32)c(C)c1 | 7%
COc1ccc(C(=O)N2C[C@@H](F)[C@@H](OCc3nc4ccc(C(F)(F)F)cc4[nH]3)C2)cc1 | ?
COCCn1ncc(N2CCC(C(=O)N(C)CC(=O)Nc3ccc(F)cc3)C2)cc1=O (stereo unspecified) | 10%
Cc1cc(C(=O)N2CCC(N3C(=O)C(O)C34CCCCC4)CC2)nn1C (stereo unspecified) | -1%
CCOCCn1cc(C2CCN(S(=O)(=O)c3ccc(Cl)cc3Cl)CC2)c2ccccc21 | -1%
Cc1ccc2c(C(=O)N3CCOCC3)cnn2c1 | 24%[70.6 µM]
CSc1cccc(NC(=O)N(C)CC2CCOCC2)c1 | 3%
O=C1NC2(CCN([S+](=O)([O-])c3ccccc3)C2)COc2ccccc21 (stereo unspecified) | -9%
Cc1noc(C)c1S(=O)(=O)N1CCC2(CC1)CC(C(=O)N1CCOCC1)N(C)C2 (stereo unspecified) | 2%
Cc1noc2c(-c3ccc(N4CCOCC4)cc3)cc(-c3cccs3)nc12 | -4%[70.6 µM]
CN1[C@@H](CCC(=O)N2CCCC2)CNC(=O)[C@H]2NCC[C@H]21 | 5%[70.6 µM]
COc1ccc(NC(=O)Cn2c(=O)c(-c3noc(C)n3)c3n(c2=O)CCCC3)cc1OC | 0%
COc1ccc(N2CC(c3noc(-c4ccc5c(c4)OCO5)n3)CC2=O)cc1OC (stereo unspecified) | 0%

# Taken from above.
# Under NPR1 antag, COc1ccc(NC(=O)N2CCCN(C)c3ccccc32)c(C)c1 is entered as 7%
# Under NPR1 antag, CSc1cccc(NC(=O)N(C)CC2CCOCC2)c1 is entered as 3%
# Under NPR1 antag, COc1ccc(NC(=O)Cn2c(=O)c(-c3noc(C)n3)c3n(c2=O)CCCC3)cc1OC is entered as 0%
# Under NPR1 antag, COCCn1ncc(N2CCC(C(=O)N(C)CC(=O)Nc3ccc(F)cc3)C2)cc1=O (stereo unspecified) is entered as 10%

# Back to the main list, repeating the two entries before the break.
mol | NPR1 antag
COc1ccc(NC(=O)Cn2c(=O)c(-c3noc(C)n3)c3n(c2=O)CCCC3)cc1OC | 0%
COc1ccc(N2CC(c3noc(-c4ccc5c(c4)OCO5)n3)CC2=O)cc1OC (stereo unspecified) | 0%
O=C1CCN(Cc2ccncc2)CCCC(C(=O)NCc2ccc(F)cc2)CCN1 (stereo unspecified) | 2%
CN1CC2(CCN(CCCOc3ccc(C(N)=O)cc3)CC2)OC1=O | 5%
COCCNC(=O)CN1C(=O)NC(c2cccs2)C2=C1COC2=O (stereo unspecified) | 2%
O=C1[C@H]2CN(Cc3cc(Br)ccc3F)C[C@H]2C(=O)N1CCc1ccccc1 | -10%
CN1Cc2cccn2CC1CNC(=O)Cc1ccccc1 (stereo unspecified) | -15%
CCN(CC)C(=O)N1C[C@@H](Oc2cccnc2)C[C@@H]1C(=O)NCCOC | 4%
COc1cc(C)ccc1OCc1cc(C(=O)NCc2n[nH]c3c2CCC3)no1 | 0%
COc1ccc2cc(C3CN(C(=O)CNC(=O)C(C)C)CCO3)ccc2c1 (stereo unspecified) | 4%
CCOc1ccc(CN2C[C@@H](NC(=O)c3cccnc3)C[C@H]2CO)cc1 | 4%
CCC(CC)CN1CCC2(CC1)CC1C(=O)N(CC)C(=O)N1C2 (stereo unspecified) | 2%
COc1cccc(-c2nnnn2[C@H]2CO[C@H]3[C@@H]2OC[C@@H]3NC(=O)c2ccc(C)cc2)c1 | ?
COc1cccc(C(=O)NCC2CCCN(Cc3cnn(C)c3C)C2)c1OC (stereo unspecified) | -2%
COCc1cc(=O)n(CC(=O)Nc2cc(Cl)ccc2C)c(N2CCOCC2)n1 | 2%
COc1ccc(OCC(O)CN2CCC(O)CC2)c(CN(C)Cc2csc(C)n2)c1 (stereo unspecified) | 11%
CC(C)Oc1cccc(-c2nc(C(=O)Nc3ccc(F)cc3)cs2)c1 | -19%

# Among those listed so far, 2 contain a CF3 group.
mol | NPR1 antag
Cc1nn(-c2ccc(C(F)(F)F)cc2)c(C)c1[C@@H]1C=C[C@@H](NC(=O)c2cccnc2)C1 | -26%[70.6 µM]
COc1ccc(C(=O)N2C[C@@H](F)[C@@H](OCc3nc4ccc(C(F)(F)F)cc4[nH]3)C2)cc1 | ?

# (list continues)
mol | NPR1 antag
Cc1ccc(C(=O)N2CC(Oc3ccc(F)c(C)c3)C2)cc1 | -7%[70.6 µM]
CN(C)c1ccc(C(=O)NC2CCN(c3cn[nH]c(=O)c3)CC2)cc1 | 3%
CC(C)CC(=O)N1CCC(c2noc(-c3ccncc3)n2)C1 (stereo unspecified) | 1%
COc1cccc(CNC(=O)[C@@H]2C[C@@H](O)CN2C2CCN(C(=O)C3(c4ccccc4)CC3)CC2)c1 | 1%
COC1CCN(c2ccc(-c3nc(COc4ccccc4)no3)cn2)CC1 | ?
O=C(NC1CCCCC1)N1CCC(OC2CCN(Cc3ccccc3)CC2)CC1 | -16%
CC(NC(=O)c1cc(-c2ccncc2)cn1C)c1ccc(F)cc1 (stereo unspecified) | -10%
COCC(=O)N(C1CCOCC1)C1CCN(S(=O)(=O)c2ccc(F)c(F)c2)CC1 | 3%
CNC(=O)c1cc[nH]c1C1CCCN(C(=O)Cc2c[nH]c3ccccc23)C1 (stereo unspecified) | 3%
CN(C)C(C(=O)N(Cc1cccc(O)c1)C1CC1)c1ccccc1F (stereo unspecified) | -3%
COc1ccc(CN2CC[C@@H]3[C@H]2C(=O)NC[C@H](CCC(=O)N2CCOCC2)N3C)cc1 | 3%[70.6 µM]
Cn1cccc1CN1CCC2(CC1)CN(c1ncccn1)CC2CO (stereo unspecified) | 5%
COCCOC1CN(C2CCN(C(=O)NC(C)C)CC2)C12CCCCC2 (stereo unspecified) | 1%
CCc1nncn1C1CCN(S(=O)(=O)c2cc(F)ccc2OC)CC1 | -9%
Cc1nc(-c2cccc(Cl)c2)n(CC(=O)NCc2ccc(F)cc2)c(=O)c1CCO | -14%

# Next results follow:
structure	NPR1 antag
C[C@@H](NC(=O)C1CCCCC1)c1c(-c2ccc(F)cc2)noc1C(=O)O	-1%[70.6 µM]
CC(=O)N1CCC(Oc2ccccc2-c2nc(C)no2)C1 (stereo unspecified)	5%
CCOc1cc(=O)n2c(c1C(=O)Nc1ccc(F)cc1)CCCC2	0%
CNC(=O)c1cc[nH]c1C1CCCN(C(=O)c2ccc(Br)o2)C1 (stereo unspecified)	1%
CC[C@@]1(C(=O)O)C[C@H](C(=O)NCCCO)[C@H](c2ccc(OC)cc2)N1C	1%
CC(=O)Nc1cccc2ccc(OCc3nnc(C(=O)N4CCC[C@@H]4c4ccc(Br)cc4)n3Cc3ccccc3)cc12	-24%
O=C1NC2(CCN(C(=O)c3ccccn3)CC2)COc2ccccc21	?
CC(C)(O)CCc1cccc(C(=O)N2CCC(CCn3cccn3)CC2)c1	3%
COc1ccc(CC(=O)N2CC[C@H](CO)[C@H](O)C2)c(OC)c1	1%
Cc1noc([C@@H]2CN(Cc3cccc(F)c3F)C[C@H]2CO)n1	-1%
Fc1ccc(Nc2cc3c(cn2)CN(Cc2ccncc2)CCN3)cc1Cl	18µM*
Cc1cc(C)n(C)c(=O)c1C(=O)N[C@@H]1COCC[C@@H]1OCc1ccccc1	-1%
CN(C)C(CNC(=O)c1cn(C2CCC(N)CC2)nn1)c1ccccn1 (stereo unspecified)	3%
CCCS(=O)(=O)NC[C@@H]1C=C(C)[C@H](Cc2nnc(-c3ccccc3F)o2)C[C@H]1C(C)C	-14%
COc1ccc(N2CCN(C(=O)Cn3c(-c4cccc(Cl)c4)nc(C)c(CCO)c3=O)CC2)cc1	-13%
CCN1c2cc(C(=O)NCc3ccc(OC)cc3)ccc2C(=O)N2CCCCC21 (stereo unspecified)	-19%
COCCOC1CCN(C(=O)Nc2cccc(C)c2)CC1	3%
Cn1nc(C2CCN(C(=O)c3cncc(Br)c3)CC2)c2c1CCOC2	-1%
Cn1cnc(C(=O)N2CCC(OC3CCN(Cc4cccnc4)CC3)CC2)c1	6%
O=C(Cn1ccn2nc3c(c2c1=O)CCCC3)Nc1ccccc1	5%
CN1CCOc2c(C(=O)NCCC(N)=O)cc(-c3ccccc3F)cc21	-1%[70.6 µM]
CN1c2cccnc2CN(Cc2ccc(Cl)cc2)CC[C@H]1CO	-3%[70.6 µM]
COc1ccc(-c2nc(C(C)C)nc3c2CN([S+](=O)([O-])c2c(C)noc2C)CC3)cc1	0%
CN(C)C(=O)c1ccc(OC2CCN(C(=O)c3ccc(F)c(F)c3)CC2)nc1	4%
CN(C)C(=O)CCN1CCOC(CC(c2ccccc2)c2ccccc2)C1 (stereo unspecified)	3%
CC1(C)NC(=O)N(CC(=O)N[C@@H]2[C@@H]3CCO[C@@H]3[C@@H]2C2CCCC2)C1=O	-10%
Cc1noc(-c2ccco2)c1C(=O)NC(C)c1ccccc1 (stereo unspecified)	-7%
COc1ccccc1N1CCN(CC[C@H]2CN(C(=O)c3ccccc3)CC[C@H]2CC(=O)O)CC1	7%
OCC1CN(c2ccncn2)CC12CCN(Cc1ccc(F)c(F)c1)CC2 (stereo unspecified)	-14%
NC(=O)[C@H](Cc1ccc(O)cc1)NC(=O)C1=C[C@@H](NC(=O)c2ccc(F)c(Cl)c2)[C@@H](O)[C@H](O)C1	-1%
CC(C)NCC1(COc2ccc(C(F)(F)F)cn2)C[C@@H](O)[C@@H](O)C1 (stereo partly specified)	4%[70.6 µM]
CNc1nccc(N2CCC(CC(=O)NCc3cccc(OC)c3OC)CC2)n1	2%
COc1ccccc1[C@@H]1CN(C(=O)c2cccnc2OC)C[C@H]1C(=O)O	4%
O=C(NC[C@H]1O[C@@H](CO)[C@@H](O)[C@H]1N1CCN(c2ccccn2)CC1)c1ccco1	7%

# Ordered by the number under NPR1 antag (lowest first): 3 from the list above
structure	NPR1 antag
CC1(C)NC(=O)N(CC(=O)N[C@@H]2[C@@H]3CCO[C@@H]3[C@@H]2C2CCCC2)C1=O	-10%
NC(=O)[C@H](Cc1ccc(O)cc1)NC(=O)C1=C[C@@H](NC(=O)c2ccc(F)c(Cl)c2)[C@@H](O)[C@H](O)C1	-1%
CN(C)C(=O)CCN1CCOC(CC(c2ccccc2)c2ccccc2)C1 (stereo unspecified)	3%

# Screens deposited in PubChem by National Center for Advancing Translational Sciences (NCATS).
